CtBP-E1A inh: qHTS Assay for Inhibitors of the CtBP/E1A Interaction; 340,000 tested, 0.49% active; AlphaScreen GST-E1A/His-CtBP binding, 1536-well; active compounds read low; control for the full effect not named in the record; AID 651724, 2012; CtBP / adenovirus E1A interaction (AlphaScreen); activity change, % (no concentration beside the values); in the data active means activity change below about -65%; inconclusive means about -30% to -65%; inactive means above about -30%; also: % is scaled to controls: 0 for no effect and ±100 for the full control effect
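GST-E1A and His-tagged CtBP (125 nM each as 5X stock) were preincubated with pin-transferred compound for 2 h at 37 °C in the dark, then glutathione donor and nickel acceptor beads were added for 1 h before AlphaScreen reading.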
Six1-Eya2 blk: qHTS Assay for Inhibitors of the Six1/Eya2 Interaction. Homeobox protein SIX1 (Homo sapiens) + Protein phosphatase EYA2 (Homo sapiens), …. 360,000 tested, 0.56% active. activity change, % (concentration not given with the values). AlphaScreen GST-Six1/His-Eya2 binding, biochemical; active compounds read low; control for the full effect not named in the record; in the data active = activity change below about -65%; inconclusive = about -30% to -65%; inactive = above about -30%; also: % is scaled to controls: 0 for no effect and ±100 for the full control effect
Target sequence (O00167 whole entry, looked up): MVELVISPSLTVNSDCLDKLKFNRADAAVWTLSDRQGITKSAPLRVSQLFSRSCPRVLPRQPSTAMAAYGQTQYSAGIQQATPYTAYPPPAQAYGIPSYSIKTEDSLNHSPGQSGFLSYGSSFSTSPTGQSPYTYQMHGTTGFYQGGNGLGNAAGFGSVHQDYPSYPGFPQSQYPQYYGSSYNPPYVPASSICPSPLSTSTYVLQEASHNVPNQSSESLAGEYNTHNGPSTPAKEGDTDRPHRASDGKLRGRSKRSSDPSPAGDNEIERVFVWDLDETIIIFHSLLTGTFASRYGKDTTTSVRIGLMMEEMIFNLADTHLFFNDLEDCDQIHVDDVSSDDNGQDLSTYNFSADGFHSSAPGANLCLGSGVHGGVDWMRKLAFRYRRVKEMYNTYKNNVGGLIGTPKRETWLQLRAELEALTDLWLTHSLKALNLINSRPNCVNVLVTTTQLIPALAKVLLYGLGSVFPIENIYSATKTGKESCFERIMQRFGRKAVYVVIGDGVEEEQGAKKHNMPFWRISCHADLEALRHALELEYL
Target sequence (Q15475 whole entry, looked up): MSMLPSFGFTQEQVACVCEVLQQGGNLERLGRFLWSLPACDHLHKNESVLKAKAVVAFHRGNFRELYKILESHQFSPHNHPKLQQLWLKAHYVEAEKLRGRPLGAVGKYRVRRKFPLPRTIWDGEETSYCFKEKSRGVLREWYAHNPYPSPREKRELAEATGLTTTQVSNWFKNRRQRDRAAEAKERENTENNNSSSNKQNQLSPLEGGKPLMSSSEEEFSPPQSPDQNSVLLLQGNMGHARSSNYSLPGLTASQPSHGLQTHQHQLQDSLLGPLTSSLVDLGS
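AlphaScreen with GST-Six1 and His-Eya2 (5X mix: 250 nM and 500 nM), glutathione donor and nickel acceptor beads; buffer 50 mM Tris pH 8.0, 300 mM NaCl, 1 mM TCEP; 1 h at 37 C in the dark.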
PINK1 modulator: A Quantitative High throughput Screen to Identify Chemical Modulators of PINK1 Expression; PINK1 immunofluorescence, high-content cytometry, 24 h; Potency, µM (series often up to 76.6 µM), without a hit: at the highest dose activation (PINK1 increase), most hits filed as activators; 410,000 tested, 0.2% active; AID 624263, 2012; active = well fitted activation curve with a large enough effect; inconclusive = small, poorly fitted or top-dose-only effect; inactive = flat fitted curve, though single readings scatter; cell line not stated here;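 also: potency is read from the fitted curve at half-maximal effect; % of control where 0% means no effect; nearly all actives have a fitted effect of over 65% in size; a mitochondrial uncoupler was the plate control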
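Stable cell line treated 24 h with compounds at 5 concentrations (CCCP controls), then fixed and immunostained for PINK1 plus nuclear and cell stains; PINK1 immunofluorescence quantified by laser-scanning microplate cytometry.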
D2 ag: Beta-Arrestin HTS for Positive Allosteric Modulators of the Human D2 Dopamine Receptor: Agonists; D(2) dopamine receptor (Homo sapiens), P14416; DiscoveRx PathHunter D2 beta-arrestin, luminescence, 90 min; 100% = 57 uM dopamine signal; activation, % (concentration not given with the values); 360,000 tested, 0.084% active; AID 624465, 2012; in the data active = activation above about 40%; inconclusive = about 15% to 40%; inactive = below about 15%; also: compound concentration not given in the record; the text of the record calls up to 30% inactive
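Agonist mode: compounds alone added to overnight-plated D2 PathHunter cells for 90 min at 37 C, with 57 uM final dopamine (EC100) defining full response. Beta-arrestin recruitment detected by chemiluminescent reagent, read after 1 h at ambient temperature.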
TRPML1 ag: qHTS for Agonists of the Human Mucolipin Transient Receptor Potential 1 (TRPML1) | TRPML1-expressing cells, Ca2+ dye fluorescence, FDSS; host cell line not named in the record; reference of the full effect not given here | activation, % (no concentration beside the values) | 410,000 tested, 0.12% active; in the data active = activation above about 50%; inconclusive = about 30% to 50%; inactive = below about 30%; also: 0% is about no effect; the text of the record puts the active cut at 80%
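Tetracycline-induced TRPML1-DL cells are seeded and incubated overnight before loading with a no-wash Ca2+ dye and quencher. Agonist activity is taken from the 110 s fluorescence read following compound pin-transfer on an FDSS, before EC80 54-4 challenge.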
D2 PAM: Beta-Arrestin HTS for Positive Allosteric Modulators of the Human D2 Dopamine Receptor: Potentiators; DiscoveRx D2 beta-arrestin cells, luminescence, 90 min; 100% = 57 uM dopamine signal; potentiation, % (concentration not given with the values); 360,000 tested, 0.23% active; active = potentiation of 50% or more; inconclusive = 30% to 50%; inactive = 30% or less;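 also: compound concentration not given in the record; tested on top of an EC20 dose of dopamine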
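D2 cells co-treated with compound plus 50 nM dopamine (EC20) for 90 min at 37 deg C to detect potentiation. Beta-arrestin recruitment was read as enzyme-fragment luminescence after 1 h at ambient temperature. Full response was set by 57 uM dopamine.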
An asterisk follows results filed as active; ? = inconclusive; / = not tested or not shown; [ ] = remark or other dose.

Below each SMILES: CtBP-E1A inh	Six1-Eya2 blk	PINK1 modulator	D2 ag	TRPML1 ag	D2 PAM
- COc1ccccc1NC(=O)C1=C(C)Nc2nnnn2C1c1cccc(C)c1 (configuration not stated)
    1.4	-0.4	9.3%	-1.1	-0.2	-3.0
- COc1ccc(N2CCN(S(=O)(=O)c3cc4c(cc3C)NC(=O)CO4)CC2)cc1
    -9.1	-7.4	6.7%	-3.3	-0.5	-5.5
- Nc1nc(N2C(=O)C3CC=CCC3C2=O)nn1-c1ccccc1 (configuration not stated)
    4.4	-3.1	/	-5.3	-0.5	-3.8
- Cc1sc2nc(CN3CCOCC3)nc(Cl)c2c1C
    6.6	20.7	-0.3%	0.5	1.7	5.2
- CCOC(=O)C1(CC2CCCCO2)CCN(C2CCSCC2)CC1 (configuration not stated)
    3.4	3.8	1.0%	-3.0	-0.2	-4.1
- O=C(CN1CCCC1)Nc1ccc([N+](=O)[O-])cc1Cl
    3.0	-0.8	-0.7%	0.1	-0.2	-1.4
- Cc1ccc(NC(=O)COC(=O)CNC(=O)c2ccco2)cc1
    3.2	5.1	1.4%	-2.6	-0.2	-3.7
- CC(C)[C@H](NC(=O)c1ccccc1Br)C(=O)OCc1nc2ccsc2c(=O)[nH]1
    -10.1	2.5	-2.5%	-3.2	3.1	10.5
- CCC(=O)Nc1ccc(Cl)c(NC(=O)C(C)C)c1
    9.2	3.8	1.8%[38.3 µM]	0.7	0.3	3.4
- O=C(COC(=O)c1nc(Cl)ccc1Cl)NC1CCCCC1
    1.4	0.2	0.9%	0.4	1.5	-0.8
- COc1ccccc1NS(=O)(=O)c1cc(N)ccc1N1CCCCC1
    /	-16.7	0.3%	3.4	0.5	-9.5
- COc1ccc(C(=O)N/C(=C/c2cccs2)c2nc3ccccc3[nH]2)cc1OC
    /	5.7	0.9%	-0.5	0.0	-8.2
- CCOc1ccc(C(=O)Nc2cc(-c3nc4ccccc4[nH]3)ccc2Cl)cc1[N+](=O)[O-]
    -17.9	-22.6	-3.7%	0.6	-0.1	-13.1
- Cc1cc(NC(=O)C2CCCC2)nc2c1c(=O)oc1ccccc12
    -6.1	-12.4	6.1%	-2.8	0.4	-31.0
- COc1ccccc1N1CCN(S(=O)(=O)c2ccc3c(c2)NC(=O)C(C)S3)CC1 (configuration not stated)
    -2.8	-6.0	1.2%	4.3	1.3	0.4
- COc1cc(CO)c(Br)cc1OCC(=O)Nc1ccccc1C
    -9.9	1.7	0.2%	-4.1	2.7	-7.2
- Cc1cc(N2CCOCC2)nc(SCc2c(Cl)cccc2Cl)n1
    34.0	20.1	8.8%	-5.4	2.8	-11.1
- C=CCn1sc(N)c(C(=O)OCC)c1=S
    1.2	-1.4	-1.2%	-1.4	0.2	-3.0
- CS(=O)(=O)N(CC(=O)NCc1cccnc1)Cc1ccc(Cl)cc1
    -1.1	4.1	-2.8%[38.3 µM]	-0.1	1.3	-2.7
- FC(F)(F)c1cccnc1-n1cncn1
    /	6.6	0.4%	-4.7	-0.5	-15.2
- O=C(c1ccc(F)cc1)C1CCN(C(=S)Nc2ccccc2)CC1
    7.4	-1.4	/	2.7	0.7	0.0
- Cc1nn(Cc2ccccc2)c2sc(C(=O)N3CCN(Cc4ccc5c(c4)OCO5)CC3)cc12
    -27.7	?	0.4%	-2.8	0.7	-11.6
- CCN(CC)C(=O)COc1ccc2c(-c3ccc(OC)cc3)cc(=O)oc2c1
    -2.6	-1.2	0.1%	1.1	0.8	-19.3
- O=C(NCc1ccc(F)cc1)C1CCN(S(=O)(=O)c2ccc(Cl)cc2)CC1
    -17.2	0.9	1.3%	1.4	-0.3	0.5
- O=C(NC1CCN(Cc2ccccc2)CC1)C1CCN(S(=O)(=O)c2cccc3nsnc23)CC1
    -1.0	4.2	-1.9%	1.3	0.1	-13.7
- CCOC(=O)[C@H]1CCC[C@@H](NS(=O)(=O)c2ccc(NC(C)=O)cc2)C1
    -15.3	-21.1	1.0%	1.2	1.8	-1.5
- COC(=O)Cc1c(C)nc2nc[nH]n2c1=O
    0.4	5.5	-0.2%[38.3 µM]	-2.4	0.1	-5.4
- Cc1ccccc1CN1C[C@H]2CON(C)[C@H]2C[C@H]1c1cccc(Br)c1
    -4.7	-11.6	1.9%	-2.3	-0.4	-5.9
- O=C(Cn1cc([N+](=O)[O-])cn1)NCCc1nc2ccccc2[nH]1
    9.3	-0.3	2.6%	-6.6	-0.7	-0.4
- COc1ccc(Cl)c(-c2cc(C(=O)NCc3ccc(C(F)(F)F)cc3)[nH]n2)c1
    1.5	-1.0	4.5%	-4.6	4.4	-9.9
- Cc1ccc(S(=O)(=O)N2CCOCC2)cc1C(=O)Nc1ccc(C(N)=O)cc1
    2.1	4.1	-0.9%	3.0	0.4	2.2
- CC(Sc1nc(N(C)C)nc(N2CCOCC2)n1)C(=O)Nc1ccccc1 (configuration not stated)
    -0.6	-9.9	1.2%	-2.8	-1.0	-12.9
- CCn1c(=O)[nH]c2cc(C(=O)Nc3cc(C)cc(C)c3)ccc2c1=O
    5.6	-2.3	5.8%	0.0	2.8	-3.0
- COc1ccc(S(=O)(=O)N2CCOCC2)cc1NC(=O)COc1ccc(C)cc1
    -23.9	-8.2	-0.4%	3.0	-0.4	-5.5
- Cc1ccc(S(=O)(=O)NNC(=O)c2ccc(F)cc2)cc1
    /	4.7	1.0%	0.6	/	-14.2
- COc1ccc(-c2oc3ccccc3c2C(=O)Oc2ccccc2)cc1
    /	50.6	7.3%	-3.5	2.6	-6.6
- O=C(Nc1cccc(Br)c1)c1ccc(CN2CCc3ccccc3C2)cc1
    -5.6	-0.4	4.8%	-2.6	1.6	-3.2
- COc1cc(-c2nnc(-c3ccncc3)o2)ccc1OCc1ccccc1
    4.7	-1.9	24.8%[38.3 µM]	-1.9	1.4	-7.1
- O=C(c1ccc(Cn2c(=O)[nH]c3ccccc3c2=O)cc1)N1CCN(c2ccc(Cl)cc2)CC1
    -24.4	-21.2	-2.3%	5.3	0.8	26.5
- C[C@H](CO)N1C[C@H](C)[C@H](CN(C)C(=O)c2ccc3ccn(C)c3c2)OCc2cnnn2CCCC1=O
    0.0	28.0	0.3%	-8.8	0.1	2.4
- CN(Cc1ccccc1)c1ccc(C(CC(N)=O)NC(=O)c2ccccc2)cc1[N+](=O)[O-] (configuration not stated)
    -10.0	-4.3	0.6%	-2.3	-0.2	-20.9
- O=C(CC(=O)N/N=C\c1ccccc1[N+](=O)[O-])NCCc1ccccc1
    3.0	2.6	0.8%	-1.3	0.8	-5.1
- CN(C)S(=O)(=O)c1cccc(NC(=O)c2cccc(NS(=O)(=O)c3ccccc3)c2)c1
    -15.5	3.1	0.4%	5.6	2.3	-28.6
- O=C(C[C@H]1C[C@H]2c3cc(NC(=O)CC4CC4)ccc3O[C@H]2[C@H](CO)O1)NCc1ccccc1F
    -28.6	7.5	3.5%	-7.3	1.6	3.3
- CCN(CC)C(=O)c1sc(NC(=O)c2ccncc2)c(C(=O)OC)c1C
    4.9	-3.0	0.2%	1.3	0.8	-0.9
- CC1CCN(C(=O)COc2ccccc2F)CC1
    -0.9	13.9	1.0%	-0.3	-0.4	-3.1
- CCc1ccc(CN2CCC(n3nccc3NC(=O)c3ccccc3OC)CC2)o1
    -1.6	-9.3	0.4%	2.8	-0.6	-40.4
- CC1(C)Cc2c(cnn2-c2cccc(F)c2)C(NC(=O)CCN2CCCC2=O)C1 (configuration not stated)
    4.8	0.0	1.4%	-5.4	1.0	-1.4
- O=C(Nc1cccnc1Cl)c1cc(-c2ccc(O)cc2)on1
    -7.4	?	5.3%	-2.3	0.2	-6.8
- CCC(C(=O)Nc1c[nH]c(=O)[nH]c1=O)c1ccccc1 (configuration not stated)
    -9.1	-3.7	-0.2%	-2.7	0.3	-21.2
- Cc1c(NC(=O)c2cccc(NC(=O)Cc3c(F)cccc3Cl)c2)c(=O)n(-c2ccccc2)n1C
    -16.7	5.0	-0.2%	-10.1	0.3	-0.9
- Cn1c(=O)c2cc(NC(=O)NCc3ccccc3)ccc2n1Cc1cccc(C(F)(F)F)c1
    26.7	14.0	9.1%	4.6	-0.3	11.9
- O=C(c1cc([N+](=O)[O-])ccc1Cl)N1CCN(c2ccc(F)cc2)CC1
    /	-4.5	0.6%	4.9	0.2	-5.2
- CC(C)=CC(=O)OCC(=O)Nc1cccc([N+](=O)[O-])c1
    5.2	3.1	0.3%	0.6	1.5	-24.5
- Cc1cccc(-n2ncc3c2CCCC3NC(=O)CCc2cccnc2)c1C (configuration not stated)
    -12.3	14.2	-1.9%	0.3	0.7	-14.0
- CCNc1nc(SC(C)C(=O)Nc2ccccc2)nc(N(C)C)n1 (configuration not stated)
    9.7	-1.1	4.3%	2.4	0.7	-5.7
- CC(OC(=O)C1=Cc2ccccc2OC1)C(=O)NCc1ccco1 (configuration not stated)
    /	1.8	1.2%	-0.9	3.1	-23.8
- Cc1c(C(=O)CN2CCN(c3ccccc3)CC2)c2ccccc2n1C
    -6.2	-14.7	1.2%	-4.4	0.1	-9.0
- CN(c1ccc(C(=O)NCc2ccc3c(c2)OCO3)cc1)S(=O)(=O)c1ccccc1
    -5.8	-1.4	2.5%	-5.6	-0.4	-3.8
- COc1ccc(CNC(=S)Nc2cc(OC)ccc2OC)cc1
    -2.8	-11.8	1.1%	-1.3	2.3	-20.9

Remaining list, next part.
Below each SMILES: CtBP-E1A inh	Six1-Eya2 blk	PINK1 modulator	D2 ag	TRPML1 ag	D2 PAM
- Cc1cc(Br)cn2c(Cc3cccc(F)c3)c(-c3ccc(C#N)cc3)nc12
    8.9	-0.2	3.9%	/	0.5	/
- c1ccc(-c2n[nH]c3c2CCC3)cc1
    2.5	-3.4	0.2%	-1.1	-0.8	-13.6
- COc1ccc(CCN2CC(C(=O)N3CCC(OC)CC3)CCC2=O)cc1 (configuration not stated)
    13.6	2.0	0.9%	-5.0	0.9	-6.2
- CCN(C(=O)COc1ccccc1[N+](=O)[O-])C1CCS(=O)(=O)C1 (configuration not stated)
    3.4	3.2	1.8%	1.5	0.0	-15.3
- C=CCON1C(=O)C(=O)N(OCC=C)[C@H]2CCCC[C@H]21
    /	5.6	-0.8%	-2.5	-0.2	-14.1
- O=C(COC(=O)c1ccc(F)cc1)Nc1nc2ccc([N+](=O)[O-])cc2s1
    1.2	-3.1	-2.3%	6.5	0.4	2.1
- O=C(NCc1cccnc1)c1cc(C2CCCCN2S(=O)(=O)c2cccs2)on1 (configuration not stated)
    -14.5	-13.8	-1.2%	-2.7	-0.6	4.0
- CCCC(c1nnnn1CS(=O)(=O)c1ccc(C)cc1)N1CCN(c2ccccc2)CC1 (configuration not stated)
    -9.2	-14.8	-1.5%	-6.8	0.7	-10.5
- COc1ccc(CNC(=O)COC(=O)Cc2ccc(Cl)cc2Cl)cc1
    /	-0.2	-0.1%	2.2	-0.1	-4.4
